ALR H2O2 inh = inhibitors of human ALR sulfhydryl oxidase, primary screen, biochemical, H2O2 detection, HRP-luminol luminescence, single point | FAD-linked sulfhydryl oxidase ALR (Homo sapiens), P55789 | purified ALR, DTT oxidation | inhibition, % (test concentration not listed) | 290,000 tested, 3.8% active | AID 485317, 2010;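 active = mean and each replicate at 75% or more; inconclusive = only one of the two met; inactive = neither met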;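 also: stock transfer was 7.5 nL into about 7.5 µL; 0% = neutral wells and 100% = wells with inactivated enzyme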
Target sequence (P55789 whole entry, looked up): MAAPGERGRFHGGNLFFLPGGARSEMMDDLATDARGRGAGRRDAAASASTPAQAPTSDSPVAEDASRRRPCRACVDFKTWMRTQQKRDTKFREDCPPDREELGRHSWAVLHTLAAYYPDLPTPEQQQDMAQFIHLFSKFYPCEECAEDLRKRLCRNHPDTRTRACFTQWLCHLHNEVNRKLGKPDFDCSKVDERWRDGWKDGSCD
AF4-AF9 inh = inhibitors of AF4 peptide binding to AF9, primary screen, biochemical, AlphaScreen, biotin-AF4 peptide, FLAG-AF9, single point. AID 651704, 2012. inhibition, % at 10 µM. 350,000 tested, 0.47% active;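 active = every replicate reaching a set inhibition limit, whatever the replicate mean, cut at about 25% in these data; inconclusive = mean inhibition reaches that limit but some replicates miss it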;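 also: 0% = plate neutral control median and 100% = total signal loss; the record names both 10 and 1 µM as test concentration; the first replicate is given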
HNF4A DNA FP = change in binding of human HNF4A to DNA, primary screen, biochemical, fluorescence polarization, FITC-DNA; Hepatocyte nuclear factor 4-alpha (Homo sapiens), P41235; 1 h; activity change, % at 10 µM; 360,000 tested, 0.3% active; AID 1224865, 2016; in the data active = activity change above about 30%, passing the limit was not always enough;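 also: controls were the assay level and a saturating level of protein; the project sought stronger binding though the title names inhibitors; some compounds called inactive have numbers as strong as hits; positive values seem to mean higher polarization but the record does not say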
Target sequence (P41235 whole entry, looked up): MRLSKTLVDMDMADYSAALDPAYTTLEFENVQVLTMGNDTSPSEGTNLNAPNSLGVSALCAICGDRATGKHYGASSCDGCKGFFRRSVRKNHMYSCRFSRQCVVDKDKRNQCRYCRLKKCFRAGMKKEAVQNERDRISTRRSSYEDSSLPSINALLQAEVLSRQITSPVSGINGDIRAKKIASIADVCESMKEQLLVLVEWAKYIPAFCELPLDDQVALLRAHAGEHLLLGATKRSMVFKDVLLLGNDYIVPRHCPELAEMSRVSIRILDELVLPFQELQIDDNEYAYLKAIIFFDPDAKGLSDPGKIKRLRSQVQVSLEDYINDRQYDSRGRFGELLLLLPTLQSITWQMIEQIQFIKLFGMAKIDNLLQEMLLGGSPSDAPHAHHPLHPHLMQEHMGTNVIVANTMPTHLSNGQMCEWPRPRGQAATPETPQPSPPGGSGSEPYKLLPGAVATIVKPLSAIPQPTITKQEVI
E coli growth = E. coli growth inhibition, primary screen, OD600; Escherichia coli growth, 23 h; stronger effect = lower value; OD600 absorbance (test concentration not listed); 330,000 tested, 0.21% active; AID 1053175, 2014;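 active = OD600 absorbance below the run mean of sample wells minus 3.6 SD, in any replicate, cut at about 0.56 in these data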;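 also: stock transfer was 300 nL into about 60 µL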
Vif TR-FRET = inhibitors of Vif binding to APOBEC3G peptide, primary screen, biochemical, TR-FRET, GST-Vif 1-94, biotin-A3G peptide, dose response retest (AID 1117319); one-dose inhibition, %; IC50 in µM for titrated hits; 260,000 tested, 0.57% active; TR-FRET GST-Vif / biotin-A3G peptide binding; higher % means a stronger effect; test concentration not given here; strong numbers were not always called active; Virion infectivity factor (Human immunodeficiency virus type 1 group M subtype B (isolate …;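 active = above the screen mean plus three standard deviations and confirmed in dose response; inconclusive = results disagree or hit not tested in dose response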;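 also: Vif residues 1-94 fused to GST binding biotinylated APOBEC3G peptide 110-148; 0% = full assay without inhibitor and 100% = GST in place of GST-Vif; retest series ran down from 100 µM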
FGF22 binding = binders of human FGF22 protein, primary screen, FGF22 synaptogenesis inhibitor project, biophysical, thermal shift, single point. Fibroblast growth factor 22 (Homo sapiens), Q9HCT0. 340,000 tested, 1.5% active. AID 651658, 2012. calls only at 9.99 µM. recombinant FGF22 thermal shift, SYPRO orange fluorescence; percent of sucrose octasulfate shift, DMSO zero;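 active = melting point raised past a set limit in the mean and every replicate; inconclusive = no clear call; three in four hits are not shown here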
Target sequence (Q9HCT0 whole entry, looked up): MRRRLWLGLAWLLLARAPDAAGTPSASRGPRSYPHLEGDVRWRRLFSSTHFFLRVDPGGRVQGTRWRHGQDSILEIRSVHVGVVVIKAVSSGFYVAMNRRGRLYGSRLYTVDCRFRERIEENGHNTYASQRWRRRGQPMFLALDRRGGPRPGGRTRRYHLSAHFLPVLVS
rRNA inh HTS = reduced GFP signal of wild-type E. coli, primary screen, bacterial rRNA inhibitor project, GFP/RFP fluorescence, OD600, single point. AID 720706, 2013. GFP signal change (wild-type ribosome), % (concentration not given with the values). E. coli WT GFP vs humanized-ribosome RFP mutants, 24 h; stronger effect = lower value; DMSO median 0, no signal -100. 350,000 tested, 1.6% active;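 active = significant combined selectivity score with lowered wild-type GFP, culture density cut under 30%, mutant RFP and density less affected; inactive = any of these conditions unmet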; also: one replicate is shown; some compounds called inactive have numbers as strong as hits
rRNA inh HTS OD600 = further read-out of rRNA inh HTS, marked with its call; OD600 change, %; measured here: OD600 growth;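 optical density of the mix in the first replicate; 0 = DMSO median and -100 = no signal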
rRNA inh HTS RFP = recorded beside rRNA inh HTS, whose call it bears; RFP signal change, %; measured here: RFP humanized mutant strains;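 first replicate; 0 = DMSO median and -100 = no signal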
* = called active by the depositor; i = inactive; ? = inconclusive; / = no result given; + = active, no number.

SMILES | ALR H2O2 inh | AF4-AF9 inh | HNF4A DNA FP | E coli growth | Vif TR-FRET | FGF22 binding | rRNA inh HTS | rRNA inh HTS OD600 | rRNA inh HTS RFP
CCn1cc([C@@H]2C[C@H]3CN(Cc4cccc(Cl)c4)C(=O)[C@]34CCCN24)c(C)n1 | -4.0 | -0.4 | 9.4 | 0.66 | 0.8% | i | 8.6 | 4.3 | 2.0
CCn1cc(CNCc2cn(C)nc2-c2ccc(C3CCCCC3)cc2)cn1 | / | 1.9 | -4.1 | 0.666 | -4.5% | i | -39.2 | -39.4 | -2.9
COc1cccc(CNC(=O)CCC2CCCN(c3cc(C)nc(N(C)C)n3)C2)c1 (stereo not drawn) | -11.7 | -1.0 | -2.9 | 0.655 | / | i | 15.6 | 13.8 | 2.8
C#CCOCCOCCOCCNc1nc(N2CCN(C(=O)[C@H](CC(N)=O)n3cc(C(N)[C@@H](C)CC)nn3)CC2)nc(N2CCN(C(=O)[C@H](CCC(=O)O)n3cc([C@@H](N)CCCCN)nn3)CC2)n1 (stereo partly drawn) | -1.9 | 4.2 | -5.1 | / | / | i | -2.5 | 2.7 | -1.1
COc1cc(S(=O)(=O)NCc2ccccc2)ccc1Br | -3.2 | / | 0.4 | 0.612 | 5.8% | / | / | / | /
Cc1ccc(S(=O)(=O)NC(C)(C)C)cc1C(=O)OCC(=O)N1CCCC1=O | -6.8 | -2.2 | -0.7 | 0.64 | 0.0% | i | 0.8 | -1.2 | -1.3
COc1cccc(OCCCCCN2CCOCC2)c1 | -10.8 | / | -0.7 | 0.705 | 17.8% | / | / | / | /
COc1cc(NS(=O)(=O)c2ccc(NS(=O)(=O)c3ccc(NC(C)=O)cc3)cc2)nc(OC)n1 | 1.1 | -5.0 | 0.1 | 0.692 | / | + | 4.7 | 0.6 | -2.6
COc1ccc2c3c(n(C)c2c1)[C@@H](CO)N(C)CC31CN(S(=O)(=O)c2cccc(C)c2)C1 | / | 0.4 | / | / | / | i | -9.3 | -15.2 | -2.3
CCOC(=O)N1CCN(C(=O)CCC(=O)c2ccc(OCC)cc2)CC1 | 0.3 | -2.8 | 0.4 | 0.676 | / | i | 1.6 | 9.1 | -0.6
O=C(c1ccc(Cl)c(Cl)c1)c1cnc(Nc2ccccc2)s1 | 4.3 | / | 3.4 | 0.739 | -6.8% | / | / | / | /
COc1ccccc1NC(=O)Nc1ncccc1C | 98.0* | / | 2.7 | / | 1.2% | / | / | / | /
O=C(N1CCCCCC1)N1CCN(S(=O)(=O)c2ccccc2)CC1 | -3.7 | / | 1.9 | 0.729 | 2.6% | / | / | / | /
COc1ccc(CN(C)C[C@H]2Oc3c(NC(=O)c4nc5ccccc5s4)cccc3C(=O)N([C@H](C)CO)C[C@@H]2C)cc1 | / | 4.8 | / | / | / | i | -5.2 | 3.4 | -0.2
COc1ccc(OC)c(Nc2ncnc3c2cnn3-c2cccc(C)c2)c1 | 14.5 | / | 26.9 | 0.69 | 15.5% | / | / | / | /
CCCCN(C(=O)c1c(-c2ccccc2)noc1C)c1c(N)n(CCC)c(=O)[nH]c1=O | / | 0.8 | -2.5 | 0.698 | / | i | 2.8 | 3.9 | -1.6
CO[C@H]1CC[C@H]2CCN(C)C(=O)C[C@H](c3ccccc3)CN(C)C(=O)c3cccc(C#N)c3OC[C@@H]1O2 | / | -0.9 | / | / | / | i | 0.8 | 0.3 | -0.8
C[C@H]1CN([C@@H](C)CO)C(=O)c2cc(NC(=O)NC3CCCCC3)ccc2O[C@H]1CN(C)Cc1ccc(C(F)(F)F)cc1 | / | -2.4 | / | / | / | i | -4.8 | -0.7 | 2.1
N#CCCn1cc(C(=O)Nc2cccc(C(=O)O)c2)c(-c2ccc(Cl)cc2)n1 | 23.4 | ? | -3.1 | 0.668 | / | i | 3.6 | 10.1 | 4.5
COC(=O)CSc1nc(NC#N)nc(NC(C)C)n1 | -3.5 | / | 0.7 | 0.696 | -2.9% | / | 17.1 | 17.4 | 1.8
C=CCNc1scc(-c2ccccc2)[n+]1CC=C | 9.1 | 17.3 | 2.8 | 0.63 | -5.9% | i | 9.2 | -11.1 | -0.9
COc1ccc(NC(=O)N(C)C[C@H]2Oc3ccc(NC(=O)Nc4cccc5ccccc45)cc3C(=O)N([C@H](C)CO)C[C@@H]2C)cc1 | / | 0.8 | / | / | / | i | -0.2 | 4.9 | 2.1
Cc1ccccc1C(=O)N1CCC[C@@H]1C(=O)N1CCC[C@H]1C(=O)NCc1ccncc1 | / | -0.1 | 3.0 | / | / | i | 7.8 | 8.8 | -2.0
CCC(C)NC(=O)c1cc2cc3ccc(OC)cc3nc2o1 (stereo not drawn) | 38.8 | 3.8 | -2.9 | 0.697 | 0.9% | i | -15.6 | -5.6 | 2.7
CCOC(=O)CC1COCCN1Cc1cn[nH]c1-c1ccc2c(c1)OCO2 (stereo not drawn) | -5.0 | -3.4 | -0.5 | 0.736 | 10.7% | i | 4.4 | 4.2 | -2.8
Cc1ccc2nc(-c3ccc(F)cc3)c(Cc3ccccn3)n2c1 | / | 0.7 | -1.4 | / | / | i | 3.9 | 1.0 | 6.6
CN(C)S(=O)(=O)N1CCC(CO)(Cc2cccc(C(F)(F)F)c2)CC1 | 17.2 | -1.4 | -5.1 | 0.666 | 20.8% | i | -29.6 | -48.9 | 3.7
CC1CCCCC1NC(=O)CCN1C(=O)C2C3C=CC(C3)C2C1=O (stereo not drawn) | -6.5 | -3.8 | 6.0 | 0.688 | / | i | 4.0 | 25.0 | 10.8
Cc1[nH]c2ccccc2c1C(=O)COC(=O)Cn1c(C(F)(F)F)nc2ccccc21 | -6.7 | / | 0.1 | 0.699 | -11.2% | / | / | / | /
COc1ccc(C(CNC(=O)c2cccc(S(=O)(=O)Nc3ccccc3Cl)c2)N2CCOCC2)cc1 (stereo not drawn) | / | -1.3 | -1.4 | 0.646 | 4.0% | i | 2.3 | 2.9 | 0.8
Cc1noc(C)c1NC(=O)Nc1ccc2c(c1)C(=O)N([C@@H](C)CO)C[C@@H](C)[C@@H](CN(C)Cc1ccc(C(=O)O)cc1)O2 | / | -2.0 | / | / | / | i | 2.0 | 5.1 | -2.2
CCOc1ccccc1OCCOc1cccc(C(F)(F)F)c1 | / | / | -0.7 | 0.775 | -2.0% | / | / | / | /
CSCCC(NC(=O)c1ccc([N+](=O)[O-])cc1Cl)C(=O)OCC(=O)N(C)C (stereo not drawn) | -43.1 | 2.8 | -2.3 | 0.681 | / | i | 8.0 | 14.9 | 18.4
CC(NC(=O)Nc1ccccc1)C(c1ccccc1)N1CCOCC1 (stereo not drawn) | 1.0 | / | -1.7 | 0.693 | -0.2% | / | / | / | /
O=C(O)C[C@H]1C[C@@H]2c3cc(NC(=O)C4CCC4)ccc3O[C@@H]2[C@H](CO)O1 | / | -1.6 | / | / | / | i | 7.6 | 11.1 | -1.2
NC1=NN=C(N2N=C(c3ccccc3)CC2(O)C(F)(F)F)n2ncnc2C1 (stereo not drawn) | -3.6 | -0.2 | -2.7 | 0.659 | -0.1% | i | 9.5 | 13.5 | -0.2
Cc1c(C(=O)N2CCN(CCc3ccccn3)CC2)oc2ccc(Cl)cc12 | -23.7 | 1.3 | 3.5 | 0.653 | 2.6% | i | -16.1 | -12.0 | 1.2
C/C(=N\Nc1nc(-c2ccc(C)cc2C)cs1)c1cc2ccccc2oc1=O | -12.8 | -0.6 | 4.2 | / | / | i | 9.9 | -7.3 | 0.4
CC(C)c1ccc(NC(=O)C(c2ccccc2)N2CCC3(CC2)OCCO3)cc1 (stereo not drawn) | -5.9 | / | -5.2 | 0.71 | 66.4% | / | / | / | /
Cc1ccc(NC(=O)CCn2cnc3ccccc3c2=O)cc1Cl | -3.5 | / | -0.2 | 0.709 | 9.0% | / | / | / | /
O=C(C1CC1)N1CCC(Oc2cccc(C(=O)N3CCCCC3CCO)c2)CC1 (stereo not drawn) | -14.3 | -5.2 | -0.1 | 0.722 | / | i | 5.3 | 4.0 | 1.3
O=c1oc2ccccc2c(Nc2ccccc2)c1[N+](=O)[O-] | -18.5 | / | 1.1 | 0.743 | -2.9% | / | / | / | /
Cc1cccc2c(=O)c(C(=O)NCc3ccc(F)cc3)c[nH]c12 | / | -35.0 | -0.1 | 0.701 | / | i | -1.6 | 15.8 | -2.9
COc1ccc(S(=O)(=O)N2CCCC2CNC(=O)C(=O)Nc2cccc(F)c2)cc1 (stereo not drawn) | -9.2 | 4.4 | -0.3 | / | / | i | 4.9 | 8.3 | -0.6
CN(C)CCCN(CCCN(C)C)C(=S)Nc1ccc(S(=O)(=O)N2CCOCC2)cc1 | / | -8.3 | 6.0 | 0.711 | 73.5% | i | 7.5 | 5.9 | 6.3
O=C1N=C(N2CCC(Cc3ccccc3)CC2)S/C1=C/c1cn[nH]c1-c1ccccc1 | -21.7 | / | -1.9 | 0.672 | 1.4% | / | / | / | /
CC(=O)Nc1ccc(S(=O)(=O)N(C)S(=O)(=O)c2ccc(F)cc2)cc1 | -8.1 | / | 0.4 | 0.737 | -0.6% | / | / | / | /
Cc1cccc(NC(=O)CN2C(=O)COc3ccc(Cl)cc32)c1 | -3.5 | 1.8 | 2.8 | 0.65 | -0.2% | i | -16.5 | -17.9 | -15.2
O=C(O)c1ccccc1SCC(=O)N1CCc2ccccc21 | -9.3 | -2.9 | -2.2 | 0.681 | -5.1% | i | 3.5 | 1.1 | 4.0
O=C(CCc1ccccc1)Nc1cccc(-c2nnc(-c3ccco3)o2)c1 | / | / | -1.4 | 0.724 | 22.2% | / | / | / | /
COc1ccccc1Nc1cc(C(=O)NC2CCCC2)c2ccccc2n1 | 9.1 | -2.1 | -0.1 | 0.657 | / | i | 9.1 | 12.3 | 0.3
CC(C)(C)c1ccc(C(=O)NNC(=O)C(=O)N2CCCCC2)cc1 | -0.6 | / | 2.6 | 0.734 | 2.6% | / | / | / | /
Cn1c(=O)c(C(=O)NNC(=O)c2ccc(Br)cc2)c(O)c2ccccc21 | / | -1.7 | -1.1 | 0.661 | / | i | -4.1 | -6.4 | -0.9
C[C@@H]1CN([C@@H](C)CO)C(=O)c2cc(NS(=O)(=O)c3cn(C)cn3)ccc2O[C@@H]1CN(C)C(=O)Nc1ccc(C(F)(F)F)cc1 | / | 0.2 | / | / | / | i | -2.7 | -6.5 | -1.6
CC(=O)Nc1ccc2nc(-c3ccncc3)[nH]c2c1 | -2.0 | / | 3.0 | 0.728 | -0.6% | / | / | / | /
COc1ccc(CN(C)C[C@H]2OCCCC[C@@H](C)Oc3ccc(NC(=O)NC4CCCCC4)cc3C(=O)N([C@H](C)CO)C[C@H]2C)cc1 | / | 12.6 | / | / | / | i | 0.7 | -5.1 | 17.4

Source: PubChem BioAssay (several laboratories)

A portion of the library; the hit share may differ from the screen's.
